# Screens: PubChem BioAssay, several laboratories
# Rce1 inhib – yeast Ras-converting enzyme inhibition. Q03530. yeast membranes, quenched prenylated peptide cleavage fluorescence. calls only. 290,000 compounds, 0.27% hits;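 active = fall in fluorescence gain of 50% or more versus controls, with final raw signal at or below 3038400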;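 note: plate controls were neutral control wells for no effect and wells lacking membranes for full effect; tested at 10 µM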
# Target sequence (Q03530 whole entry, looked up): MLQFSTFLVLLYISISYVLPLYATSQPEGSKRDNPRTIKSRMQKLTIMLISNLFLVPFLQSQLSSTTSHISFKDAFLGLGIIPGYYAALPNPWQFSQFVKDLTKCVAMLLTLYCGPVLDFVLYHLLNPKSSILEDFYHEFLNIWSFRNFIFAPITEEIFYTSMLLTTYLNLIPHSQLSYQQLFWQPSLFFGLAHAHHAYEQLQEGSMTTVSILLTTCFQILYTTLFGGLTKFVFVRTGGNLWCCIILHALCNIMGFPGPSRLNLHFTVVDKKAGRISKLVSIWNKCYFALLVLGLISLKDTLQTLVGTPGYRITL
# CSC inhib – blocks cancer stem cells | cancer stem cell-like cells viability, luminescence | inhibition, % at 7.5 µM | 300,000 compounds, 1.1% hits | AID 2717;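 active = mean at 75% or more and at least half the replicates too; tested in HMLE shEcad cells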;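 note: 0% = median of negative and 100% = median of positive control wells; the first replicate is given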
# eIF4H FP inh – inhibitors of RNA binding by human eIF4H; 290,000 compounds, 0.94% hits; eIF4H fluorescence polarization binding assay; Q15056; inhibition, % at 35 µM;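 active = 50% or more with normal probe brightness, or confirmed in later tests; about a fifth of its hits are not listed in these tables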;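 note: calls also rest on retests at 20 µM and on dose response follow-up; 0% = protein and probe with vehicle and 100% = probe without protein; strong numbers were not always called active; many hits fall short of the cut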
# Env fusion inh – inhibitors of HIV Env-mediated cell fusion; HeLa-JRFL Env/CEM21 cell fusion, luciferase; inhibition, % at 12.3 µM; 360,000 compounds, 1.1% hits; AID 651610;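 active = mean replicate inhibition score of at least 50 and every replicate individually at or above 50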;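 note: 0% = plate neutral controls and 100% = maraviroc near 300 nM; one replicate is shown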
# MT1-MMP act inh – blocks activation of human MT1-MMP; P50281; HT1080 RFP-PRO-GFP cells, GFP/RFP ratio fluorescence, overnight; percent of plate control window, DMSO zero; GFP/RFP ratio change, % at 20 µM; 360,000 compounds, 0.061% hits;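 active = GFP/RFP ratio change of at least 30% with cell ATP level not reduced by more than half and red fluorescence within 50% of control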; note: strong numbers were not always called active
#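 Read-out: GFP/RFP fluorescence ratio; Test system: RFP-PRO-GFP reporter HT1080 cells; Compound dosing: single-point 20 µM compound, 1% DMSO; Times: overnight compound exposure at 37 °C.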
# PABP polyA inh – blocks human PABP binding to poly(A) RNA | P11940 | fluorescence polarization | inhibition, % at 35 µM | 290,000 compounds, 1% hits;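 active = 50% or more with normal probe brightness, or confirmed in later tests; about a fifth of its hits are not listed in these tables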;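 note: calls also rest on retests at 20 µM and on dose response follow-up; controls were probe without protein and protein plus probe with vehicle; some compounds called inactive have numbers as strong as hits; many hits fall short of the cut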
# Target sequence (P11940 whole entry, looked up): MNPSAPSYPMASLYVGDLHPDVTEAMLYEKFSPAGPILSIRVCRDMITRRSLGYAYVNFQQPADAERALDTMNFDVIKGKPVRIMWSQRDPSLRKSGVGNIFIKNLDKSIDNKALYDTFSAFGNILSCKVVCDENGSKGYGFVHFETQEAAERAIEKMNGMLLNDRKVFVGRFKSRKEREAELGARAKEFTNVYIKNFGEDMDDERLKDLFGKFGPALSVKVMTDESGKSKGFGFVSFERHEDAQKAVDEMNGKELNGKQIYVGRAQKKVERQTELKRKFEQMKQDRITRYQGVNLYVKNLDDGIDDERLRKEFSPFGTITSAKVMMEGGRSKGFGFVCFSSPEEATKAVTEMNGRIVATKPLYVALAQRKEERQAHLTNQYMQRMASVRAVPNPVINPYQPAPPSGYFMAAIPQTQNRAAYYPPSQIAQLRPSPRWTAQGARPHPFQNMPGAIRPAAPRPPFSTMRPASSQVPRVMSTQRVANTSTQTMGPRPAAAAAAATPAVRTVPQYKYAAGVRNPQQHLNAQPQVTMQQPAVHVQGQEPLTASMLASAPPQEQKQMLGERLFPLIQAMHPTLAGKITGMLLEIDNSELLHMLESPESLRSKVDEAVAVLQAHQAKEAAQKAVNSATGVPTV
# Yeast UUG start – modulators of start codon recognition fidelity in yeast; AID 602363; activity score, % at 18.7 µM; 350,000 compounds, 0.13% hits; S. cerevisiae UUG-firefly luciferase reporter, luminescence/redox ratio;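 active = replicate mean at a twofold rise or more, about +100% in these data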;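 note: firefly luciferase made from a UUG start codon reports start codon fidelity; reporter light over untreated wells divided by growth signal over untreated wells; some hits fall short of that in this replicate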
# eIF4H FP inh retest – further read-out of eIF4H FP inh, marked with its call; inhibition, %; compound at 20 µM; confirmation average;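 mean of two retest wells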
# PABP polyA inh retest – recorded beside PABP polyA inh, whose call it bears; inhibition, %; compound at 20 µM; confirmation repeats;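 mean of two retest wells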
# MT1-MMP act inh RFP – also measured in MT1-MMP act inh; calls as there; RFP signal change, %; measured here: RFP expression control read;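 0 = vehicle wells; hits needed this value within 50% of zero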
# Numbers without * were called inactive; i = inactive; · = no result given. Hits appear at their usual frequency; any-hit rate near 3%.
SMILES,Rce1 inhib,CSC inhib,eIF4H FP inh,Env fusion inh,MT1-MMP act inh,MT1-MMP act inh RFP,PABP polyA inh,Yeast UUG start,others
CCCn1c2c(c(=N)c3c1CCC3)CCC2,i,4,·,-26,-5,-20,·,·,
CCCCNC(=O)/C(C#N)=C/c1ccc(F)cc1F,i,2,-6,-2,-6,-4,-2,·,
CCCCCn1c(Br)nc2c1c(=O)n(CC(N)=O)c(=O)n2C,i,-13,5,-86,0,3,42,·,
Cc1ccc2c(N)[nH]nc2n1,i,5,33,-8,-3,-2,7,·,
CCc1cccc(C)c1NC(=O)Cc1ccsc1,i,-7,-3,-46,-2,-1,7,-17,
COc1ccc(-c2c(C(F)(F)F)nn(C)c2NC(C)=O)cc1,i,-7,-10,17,2,1,4,·,
Cc1cccc(NS(=O)(=O)c2cccc([N+](=O)[O-])c2)n1,i,-10,-5,-5,1,3,0,-6,
CCOc1cccc(C(=O)NC(=S)Nc2ccccc2)c1,i,20,2,-54,3,3,7,·,
CCOC(=O)Cc1c(C)c2c(C)[nH]nc2oc1=O,i,-12,5,·,3,0,-8,-15,
CCOC(=O)C1C(=O)C(=O)N(C2CCCCC2)C1C(=O)OCC (configuration not stated),·,·,·,14,5,-4,·,-4,
CC(=O)c1ccc(S(=O)(=O)N2CCCC(N(C)CCc3ccccc3)C2)cc1 (configuration not stated),i,-2,-3,2,9,3,-21,-21,
CCC(C)(C)NC(=O)CN(C(=O)c1snc(C(N)=O)c1N)c1ccc2c(c1)OCCO2,i,-5,-1,-12,2,-3,-6,12,
CCn1cc(S(=O)(=O)Nc2cc(C)ccc2F)cn1,i,·,-3,12,2,0,-3,-26,
O=C(CSc1nnc(Cc2ccccc2)n1-c1cccc(Cl)c1)NNC(=O)Cc1ccccc1,i,-11,-8,-4,1,4,-9,2,
CN(C)c1nnnn1-c1ccccc1Oc1ncc(C(F)(F)F)cc1Cl,i,·,1,-23,-1,1,1,·,
CN(C(=O)c1ccccc1)c1nccnc1C#N,i,-21,-12,-1,1,1,-8,-12,
CC(=O)c1cccc(NC(=O)C2(C)Cc3c(-c4ccccc4)ccnc3O2)c1 (configuration not stated),·,·,·,26,-7,-16,·,-19,
COc1ccc(-c2csc(N3CCC(c4ccccc4)CC3)n2)cc1,i,-3,-13,9,2,4,-5,-7,
CC1(C)Cc2c(C#N)c(N)n(-c3ccccc3)c(=O)c2CO1,i,-5,-4,-26,0,-4,1,-1,
OC(COc1ccccc1F)CN1CCC(Cc2ccccc2)CC1 (configuration not stated),i,11,-5,1,4,4,-10,-11,
COCCCNC(=O)C1CCC(=O)N1Cc1ccccc1Cl (configuration not stated),i,-23,-5,·,4,8,-10,-17,
O=C(CSc1nnc(NC(=O)c2ccccc2[N+](=O)[O-])s1)NCc1ccco1,i,5,4,-8,0,1,11,-18,
CC(=O)c1ccc(NC(=O)CCCC(=O)c2ccccc2)cc1,i,-9,-3,6,3,2,1,-7,
FC(F)(F)c1cccc(CNC(=S)Nc2ccccc2)c1,i,20,-2,-37,2,-5,1,·,
CCCN(CCC)C(=O)CC(c1ccccc1)c1cc(Br)ccc1O (configuration not stated),i,62,-4,30,-18,-11,2,·,
O=C(c1cc(COc2c(F)cccc2F)on1)N(Cc1ccccc1)CC1CC1,i,6,-16,9,2,1,2,12,
COC(=O)Cc1c(C)c2ccc(OCC(=O)N3CCCC3)c(C)c2oc1=O,i,-6,0,3,7,-5,1,-19,
CN(C(=O)c1ccc(Cl)cc1)C1=CCCCC1CCC#N (configuration not stated),i,-6,4,·,5,7,4,3,
COc1ccccc1CNc1nc(NCCOc2ccccc2)c2sccc2n1,·,·,·,12,-3,-22,·,-7,
NC(=O)C1CCN(C(=S)NCCc2ccccc2)CC1,i,0,2,1,-1,7,-4,·,
COc1ccc(OC)c(NC(=S)NCCC(c2ccccc2)c2ccccc2)c1,i,10,·,10,2,-2,·,-33,
CC(C)C(=O)Nc1nc2cc3c(cc2s1)OCO3,i,0,1,·,-1,-19,12,-5,
CC1CCCN(CC(O)COCc2ccccc2)C1 (configuration not stated),i,3,3,3,2,3,0,-11,
O=C(NCC(=O)N1CCN(c2ccccc2F)CC1)c1ccco1,i,·,-12,-20,2,3,2,-8,
CCOC(=O)C1(CCCc2ccccc2)CCN(C(=O)c2cnn(CC)c2)CC1,i,9,-4,26,-2,-14,2,-3,
O=C(C1CCCN(S(=O)(=O)c2ccc(Cl)cc2)C1)N(Cc1cccs1)C1CC1 (configuration not stated),i,11,9,42,-6,-21,-4,1,
O=C(Cn1c(=O)oc2ccccc21)N1CCOCC1,i,-1,3,13,2,0,2,·,
O=C(CNC(=O)c1ccc(Cl)cc1Cl)OCCOc1ccccc1F,·,3,·,-24,4,4,·,-9,
Cc1ccc(NC(=O)[C@H](CC(C)C)NC(=O)[C@@H]2Cc3ccccc3CN2)cc1,i,-14,-9,3,-1,3,2,-6,
CC(C)(C)NC(=O)CSC(=Nc1ccccc1F)NC#N,i,-3,9,-139,-40,12,-5,-22,
COc1ccc([C@H]2CC(=O)C=C(c3ccc4c(c3)OCO4)C2)cc1OC,·,6,·,-9,-2,-3,·,-16,
COc1ccc(CNC(=O)C2Cc3c(-c4cccc(C(C)=O)c4)ccnc3O2)cc1OC (configuration not stated),·,·,·,-112,-2,-9,·,7,
O=C(NCc1cccnc1)c1ccccn1,i,-20,-3,29,0,-2,8,-21,
Cc1oc2cc3oc(=O)c(CCC(=O)NCCCC(=O)O)c(C)c3cc2c1C,i,-4,-5,-17,7,4,52,-15,eIF4H FP inh retest=-11;PABP polyA inh retest=8
CN1CCN(NC(=O)CN(C)S(=O)(=O)c2cc(Cl)ccc2Cl)CC1,i,16,1,11,2,4,8,-18,

# Ordered by SMILES length (low to high): some entries from above
SMILES,Rce1 inhib,CSC inhib,eIF4H FP inh,Env fusion inh,MT1-MMP act inh,MT1-MMP act inh RFP,PABP polyA inh,Yeast UUG start,others
O=C(NCc1cccnc1)c1ccccn1,i,-20,-3,29,0,-2,8,-21,
COc1ccc(CNC(=O)C2Cc3c(-c4cccc(C(C)=O)c4)ccnc3O2)cc1OC (configuration not stated),·,·,·,-112,-2,-9,·,7,
Cc1ccc(NC(=O)[C@H](CC(C)C)NC(=O)[C@@H]2Cc3ccccc3CN2)cc1,i,-14,-9,3,-1,3,2,-6,

# The list continues.
SMILES,Rce1 inhib,CSC inhib,eIF4H FP inh,Env fusion inh,MT1-MMP act inh,MT1-MMP act inh RFP,PABP polyA inh,Yeast UUG start,others
Cc1ccc2nc(C3CCCN(C(=S)Nc4cccc(C)c4C)C3)[nH]c2c1 (configuration not stated),i,·,-4,-59,4,-6,-3,-19,
Cc1ccc(NS(=O)(=O)c2cc3c4c(cccc4c2)C(=O)NC3=O)cc1C,i,79*,57,8,-51,-8,39*,5,eIF4H FP inh retest=20;PABP polyA inh retest=72*
CC(C)NC(=O)c1ccc(S(=O)(=O)N(C)C)cc1,i,1,6,-59,-1,3,-5,-2,
N#CCSc1nnc(COc2cccc3ccccc23)n1-c1ccccc1,i,-9,-2,48,-8,-18,2,-12,
Cn1c(-c2ccc(N)cc2)nc2ccccc21,·,-8,0,·,5,6,-7,-7,
CC(C)NC(=O)NC(=O)CSc1nnc(COc2ccccc2Cl)o1,i,7,-5,·,1,5,-5,·,
CCc1cccc(C)c1NC(=O)c1ccc(CN2CCc3ccccc3C2)cc1,i,9,1,·,2,-2,-6,·,
CN(C(=O)CO/N=C/c1ccc(Cl)cc1)c1ccccc1,i,-10,-8,-4,5,0,-3,-1,
NC(=O)Nc1ccc2c(c1)OCCO2,·,-9,-9,6,-10,3,3,-1,
Cc1cccc(NC(=O)c2cccc(NS(=O)(=O)c3ccc(Cl)cc3)c2)c1,i,-6,-3,·,7,-4,6,-3,
O=C(Nc1ccccc1)OCC(CN1CCCCC1)OC(=O)Nc1ccccc1 (configuration not stated),·,-7,·,-40,0,4,·,-5,
Cc1ccc(-n2cc(C(=O)c3ccc4ccccc4c3O)cn2)cc1,i,-1,6,-45,4,6,-6,·,
O=C1c2ccccc2-c2c1cccc2C(=O)N1CCOCC1,i,-31,-7,·,5,0,1,-9,
FC(F)(F)c1cc(Cl)c2nnc(-c3cccnc3)n2c1,·,-1,1,26,0,4,42,·,
COC(=O)c1ccccc1NC(=O)CN(CCc1ccccc1)S(C)(=O)=O,i,-15,-14,-14,10,0,8,2,
O=C(NNC(=S)NC1CC2C=CC1C2)c1cccnc1 (configuration not stated),i,-4,2,3,1,-2,4,-34,
CCCS(=O)(=O)N1CCCC(C(=O)Nc2ccc3c(c2)CCC3)C1 (configuration not stated),i,8,-6,-4,-3,1,5,-11,
COc1ccccc1N1CCN(C(=O)Nc2cccc(Cl)c2)CC1,i,-12,14,·,1,-4,3,-17,
CCc1ccc(/C=C2/SC(N3CCOCC3)=NC2=O)cc1,i,-6,2,-7,3,-3,12,·,
CC(Oc1cccc(Cl)c1)C(=O)NNC(=O)c1cccnc1 (configuration not stated),·,-18,·,-2,1,4,·,-13,
CCCNc1nc2c(c(=O)[nH]c(=O)n2C)n1Cc1cccc(Br)c1,i,16,4,·,4,0,-14,-8,
CCn1c(CSc2nnc(-c3ccc4c(c3)OCO4)o2)nc2cc(S(=O)(=O)N(C)C)ccc21,·,-17,-1,6,1,-6,-2,-6,
Cc1nn(C(C)c2nc(-c3ccccc3)no2)c(C)c1[N+](=O)[O-] (configuration not stated),i,8,0,·,-3,1,-1,-10,
O=C(CCNS(=O)(=O)c1cccc2nonc12)NCCc1ccc(Cl)cc1,i,15,-4,0,-2,4,5,7,
COc1ccc(/C=C/C(=O)OCC(=O)Nc2ncc(Cl)cc2Cl)cc1,·,-3,·,-8,2,3,·,-7,
CC1(C)CC(=O)C=C(c2ccc(-c3cccc4c3sc3ccccc34)cc2)C1=O,·,·,·,1,3,-1,·,-10,
CC(Oc1ccccc1F)c1nnc(SCC(=O)N(c2ccccc2)C2CCS(=O)(=O)C2)o1 (configuration not stated),·,4,·,9,4,-10,·,9,
O=C(CSc1ncccc1C(=O)O)NC1CCCCC1,i,-8,·,-2,1,4,·,25,
COc1ccc(C(O)c2nc(-c3cccc4cccnc34)cs2)cc1 (configuration not stated),·,·,·,-18,0,3,·,-9,
Cc1cc(NC(=O)Cn2cc([N+](=O)[O-])cn2)n(Cc2ccc(F)cc2)n1,i,6,1,-4,2,1,-3,·,
O=C(OCc1ccc(F)cc1)c1cc(=O)c2ccccc2o1,i,-1,0,-11,0,2,2,-12,
COc1ccccc1C1NC(=O)NC(C)=C1C(=O)OCC1CCCCC1 (configuration not stated),·,·,·,10,-2,-13,·,-27,
O=C(Nc1cc(Sc2ccccn2)cc([N+](=O)[O-])c1)c1cccc(Cl)c1,i,50,1,4,-3,-20,-6,-14,
CCCCNC(=O)c1onc(CSc2ccccc2CC)c1C(=O)O,i,38,3,-15,-3,1,6,8,
N#CC1=C(N)Oc2cc(O)c(C=Nc3ccccc3)cc2C1c1ccccc1 (configuration not stated),i,-1,5,-88,-29,0,22,·,
O=C(CCN1CCN(Cc2ccccc2)CC1)NNC(=O)Nc1cccc(C(F)(F)F)c1,i,3,-14,12,4,1,-6,-5,
CCN(c1ccc(NC(=O)COC(=O)C(C)N=C2NS(=O)(=O)c3ccccc32)cc1)C(C)C (configuration not stated),·,·,·,-4,4,3,·,16,
CCCCN(C)c1c(C)nc2ccc(C(=O)N(C)Cc3ccco3)cn12,·,·,·,14,-1,-1,·,-3,
CN(C)S(=O)(=O)c1ccc(C(=O)Nc2ccccc2C(=O)O)cc1,i,-14,-1,·,5,4,-8,-18,
